Bioassay records from PubChem BioAssay.
YjeE inh – inhibitors of E. coli YjeE (TsaE) | P0AF67 | purified YjeE, fluorescence polarisation of a bound ADP probe | Potency, µM | 0.05% of 71,000 active | AID 605; active = well fitted falling curve; inconclusive = weaker or top-dose-only fall, or a rising curve; inactive = flat or poorly fitted curve;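 note: top concentration of the series not given in the record; excess ADP was the control for the full effect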
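Fluorescence polarization of a BODIPY Texas Red–ADP probe (2 uM) bound to purified YjeE (10 uM) was read after 15 min room-temperature incubation with compounds. Loss of polarization marks inhibitors; ADP serves as titrated control.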
PK Bst – modulators of Bacillus stearothermophilus pyruvate kinase | partly purified Bacillus stearothermophilus pyruvate kinase, luminescence ATP production; ribose 5-phosphate activator present at AC10 | Potency, µM | 1.2% of 51,000 active; in the data active means potency below about 11 µM; inconclusive means mostly about 12 µM to 25 µM; inactive means weaker than that;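 the screen sought inhibitors and activators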;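 note: potency is the fitted concentration of half-maximal effect; scaled between full activation by ribose 5 phosphate and full inhibition by luteolin; about four in five hits inhibit and the cells do not say which; series up to 57 µM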
* marks the source's active call; other numbers are inactive results; i = inactive; u = inconclusive; x = no result given. The list is partial (hit frequency here may not be typical).

canonical_smiles	YjeE inh	PK Bst
C[C@@H](C(=O)Nc1ccc2ccccc2c1)[C@H]1C[C@]1(C)[C@H](NS(=O)(=O)c1ccccc1)c1ccccc1	i	x
Cc1[nH]c(=O)[nH]c(=O)c1S(=O)(=O)N1CCCC(C(=O)NCCc2ccccc2)C1 (configuration not stated)	i	>57
C=CCn1c(C)cc(C(=O)CSc2nnc(-c3cccc(S(=O)(=O)N(CC)CC)c3)o2)c1C	i	>57
Cn1cc(-c2nc3cncnc3n(Cc3ccccc3Cl)c2=O)c2ccccc21	i	x
CN1CCN(c2ncc3nc(-c4cc(F)cc(F)c4)c(=O)n(C4CC4)c3n2)CC1	i	x
C=CCn1c(SCc2nc3ccccc3[nH]2)nnc1-c1ccncc1	i	>57
CCN1CCN(c2ncc(C(=O)Nc3cc(Cl)ccc3OC)c3ccccc23)CC1	i	>57
CC(C)=C(NC(=O)c1ccccc1)C(=O)NCCCC(=O)O	i	x
COc1cc(-c2nc3cnccc3n2C)cc(OC)c1OC	i	>57
Cc1occc1C(=O)Nc1cccnc1	i	>57

Additional compounds follow.
canonical_smiles	YjeE inh	PK Bst
Cc1ccc(S(=O)(=O)N(C)Cc2nc(-c3ccccn3)no2)cc1	i	>57
CC(=O)Oc1ccccc1C(=O)Oc1ccc(/C=N/n2cnnc2)cc1	i	x
CC[N+](C)(CC)CCC[n+]1c(-c2ccccc2)c2cc(N)ccc2c2ccc(N)cc21	i	x
OC[C@@H]1O[C@@H](n2cnc3c(N[C@H]4CCC[C@@H]4O)ncnc32)[C@H](O)[C@H]1O	i	x
Brc1ccc(-c2csc(/N=C/N3CCOCC3)n2)cc1	i	u
Cc1cc(-n2c(C)cc(C(=O)CN3C(=O)NC4(CCCCC4)C3=O)c2C)no1	i	>57
CC1(C)CNC(=O)c2sc(NC(=O)CN3CCOCC3)nc2C1	i	>57
O=C(Nc1ccc(Cl)cc1)N(Cc1cccnc1)Cc1ccco1	i	>57
COC(=O)[C@H]1C2CCC(C(=O)OC)(CC2)[C@H]1C(=O)OC	i	>57
O=C(Nc1ccccc1)NC1CS(=O)(=O)CC1O (configuration not stated)	i	>57

Other records follow:
canonical_smiles	YjeE inh	PK Bst
COc1ccc(C)cc1NC(=O)CN1C(=O)c2ccccc2S1(=O)=O	i	x
O=C(Cn1nc(Cc2ccncc2)c2ccccc2c1=O)N1CCc2ccccc2C1	i	x
CC(=NCC1CCNCC1)C1=C(O)CC(C)(C)CC1=O	i	x
O=C(Cn1ncc2ccccc21)N1CCN(c2cccc(C(F)(F)F)c2)CC1	i	>57
COc1ccc(C2C(C(C)=O)=C(O)C(=O)N2CCc2ccccc2)c(OC)c1 (configuration not stated)	i	>57
O=C1OC(c2ccc(O)cc2)(c2ccc(O)cc2)c2ccccc21	i	>26
COCCn1c(=O)c(C)nc2cnc(Nc3ccccc3)nc21	i	x
COc1ccccc1Cc1noc(C(C)(C)NC(=O)c2ccccc2)n1	i	>57
Cc1cc(NS(=O)(=O)c2ccc(NC(=O)CCCOc3ccc(Cl)cc3)cc2)no1	i	>57
CC1CCCC(NC(=O)CSc2nnnn2C)C1C (configuration not stated)	i	>57

Next part
canonical_smiles	YjeE inh	PK Bst
CCSc1nnc(NC(=O)CSc2ncccn2)s1	i	x
COC(=O)C(O)(CC(=O)Nc1ccc(OC(F)(F)F)cc1)C(F)(F)F (configuration not stated)	i	>57
O=C(c1ccc(F)cc1)N1CCN(C2CC3CCC2C3)CC1 (configuration not stated)	i	>57
CC(NC(=O)C1CCC1)c1ccccc1 (configuration not stated)	i	>57
COCCN(C(=O)CN1CCc2ccccc2C1)c1c(N)n(Cc2ccccc2)c(=O)[nH]c1=O	i	>57
CCc1ccc(S(=O)(=O)NCc2cn3c(C)csc3n2)s1	i	x
O=C(NCc1ccco1)C(c1ccco1)N(C(=O)Cn1nnc2ccccc21)c1ccc2c(c1)CCC2 (configuration not stated)	i	>57
CC(C(=O)N1CCOCC1)N1c2cccc3cccc(c23)S1(=O)=O (configuration not stated)	i	1.8*
COc1ccc(C(=O)N2CCC3(CCCN(c4ccc(-c5ccccc5)cc4)C3)CC2)cc1	i	x
O=C(CCSc1nc(-c2ccco2)cc(C(F)(F)F)n1)Nc1ccc2c(c1)OCO2	i	>57

Further compounds:
canonical_smiles	YjeE inh	PK Bst
OC(C#CCN1CCCCC1)c1ccccc1 (configuration not stated)	i	x
Cc1ccc(-c2noc(CCC(=O)NCCCN3CCN(c4ccc(F)cc4)CC3)n2)cc1	i	>57
O=C(c1oc2ccccc2c1CSCc1ccccc1)N1CCN(c2ncccn2)CC1	i	>57
COc1cccc(C2=NO[C@@H]3C(=O)N(Cc4ccccc4)C(=O)[C@H]23)c1OC	i	>57
Cc1cc(N2CCN(c3ccccc3)CC2)nc(NCc2ccccc2)n1	i	>57
c1ccc(-c2ccc(OCCCn3cncn3)cc2)cc1	i	x
C[C@H](C(=O)c1ccncc1)c1ccccn1	i	x
CCn1c2c(c3cc(Cl)ccc31)CCCC2=O	i	x
Cc1cccc(C)c1OCC(=O)Nc1cccc(-c2nnc(-c3ccccc3)o2)c1	x	>26
CN(C)S(=O)(=O)c1ccc(C(=O)Nc2cccc(C(=O)O)c2)cc1	i	>57

Structural class: the compounds so far containing a Cl atom (5)
canonical_smiles	YjeE inh	PK Bst
Cn1cc(-c2nc3cncnc3n(Cc3ccccc3Cl)c2=O)c2ccccc21	i	x
CCN1CCN(c2ncc(C(=O)Nc3cc(Cl)ccc3OC)c3ccccc23)CC1	i	>57
O=C(Nc1ccc(Cl)cc1)N(Cc1cccnc1)Cc1ccco1	i	>57
Cc1cc(NS(=O)(=O)c2ccc(NC(=O)CCCOc3ccc(Cl)cc3)cc2)no1	i	>57
CCn1c2c(c3cc(Cl)ccc31)CCCC2=O	i	x

(next part)
canonical_smiles	YjeE inh	PK Bst
COc1cc(Br)cc(-c2nc3c(c(=O)[nH]c(=O)n3Cc3ccccc3)n2C)c1O	i	>57
N#Cc1c(NC(=O)CSc2nc3ccccc3c(=O)n2Cc2ccco2)sc2c1CCCC2	i	>57
CCOCCCn1c(=NC(=O)c2cccnc2)c(C(=O)OCC)cc2c(=O)n3ccccc3nc21	i	>57
CC(=O)NCCc1c[nH]c2ccc(O)cc12	i	x
CCOc1cccc(C=Nc2cc(C)cc(C)c2O)c1O	i	x
Cc1nc2cnc(OCc3ccccc3)nc2n(Cc2ccc(F)cc2)c1=O	i	x
COc1ccc(Cn2c(CCC(=O)Nc3ccc(CC#N)cc3)nc3cccnc32)cc1	i	>57
COc1ccc(C(=O)CSc2nc3nc(C)cc(C)c3c(=O)[nH]2)cc1OC	i	>57
COc1ccc(-n2c(Cn3c(=O)sc4ccccc43)nnc2SCC(=O)N2CCCCC2)cc1	i	x
c1cn(-c2ncnc3sc4c(c23)CCCC4)cn1	i	x

More entries
compound,YjeE inh,PK Bst
CCN(CC)CC#CCOC(=O)C(O)(c1ccccc1)C1CCCCC1 (configuration not stated),x,>26
COc1ccccc1CN1C(=O)C2CC=CCC2C1=O (configuration not stated),i,>57
Cc1ccc(S(=O)(=O)NCCC(=O)Nc2nnc(C3CC3)s2)cc1C,i,x
O=C(O)c1nc(-c2ccccc2)[nH]c1C(=O)O,i,x
Cc1cc(C(=O)OCC(=O)c2ccc3c(c2)OCCO3)c(C)o1,i,x
COc1ccc(NC(=O)c2ccc(S(=O)(=O)N(C)C)cc2)cc1OC,i,>57
CC1=C(/C=C/C(C)=C/C=C/C(C)=C/C(=O)Nc2ccc(O)cc2)C(C)(C)CCC1,i,x
C=C(C)CN1CCN(c2c(CCC#N)c(C)c(C#N)c3nc4ccccc4n23)CC1,x,>11
COc1ccc(C2SCC(C(=O)O)N2C(C)=O)cc1OC (configuration not stated),i,x
Cn1cnnc1SCC(=O)Nc1ccccc1Sc1ccccc1,i,>57

Next section
compound,YjeE inh,PK Bst
Cc1cccn2c(=O)c3cc(C#N)c(=N)n(Cc4ccncc4)c3nc12,x,>26
Cc1cc(NC(=O)c2cc(-c3ccc4c(c3)OCO4)on2)n(-c2ccccc2)n1,i,>57
Nc1nc(C2CCCN2S(=O)(=O)c2ccc(Cl)cc2)cs1 (configuration not stated),i,u
CC(=O)N1CCc2cc(C(=O)CN3CCCN(Cc4ccc(F)cc4)C3)ccc21,i,x
COc1ccccc1N1CCN(C(=O)CSc2nnc(NC(=O)C3CCC3)s2)CC1,i,>57
CC(C)CCNC(=O)CN(CCN1CCOCC1)C(=O)Cn1nnc(-c2ccc(F)cc2)n1,i,>57
NC(=O)CSc1nnc(Cn2c(=O)sc3ccccc32)n1-c1ccccc1,i,x
CN1CCN(c2nc3c(c(=O)n(C)c(=O)n3C)n2C)CC1,i,x
Cc1cc(OC(=O)CNC(=O)OC(C)(C)C)c2c(C)cc(=O)oc2c1,i,x
Cc1ccc2[nH]c(=O)c(C(c3nnnn3CC3CCCO3)N3CCc4ccccc4C3)cc2c1 (configuration not stated),i,>57

(continued)
compound,YjeE inh,PK Bst
CCOC(=O)C1CCCN(CC(=O)Nc2c(C(=O)OC)[nH]c3ccc(Cl)cc23)C1 (configuration not stated),i,>57
O=C(NCc1ccco1)c1cc(-c2ccccc2)on1,i,>57
CCOC(=O)c1sc(=NC(=O)c2ccc(S(=O)(=O)N3CCOCC3)cc2)n(C)c1C,i,>57
CCOCCCNC(=O)Cn1nc(-c2ccccc2)ccc1=O,i,x
CC1(C(=O)O)C=CCN1C(=O)c1ccccc1 (configuration not stated),i,x
O=C(Nc1ccc(Br)cc1Cl)Nn1cnnc1,i,>57
Cc1cc(C(=O)OCn2nnc3ccccc3c2=O)c(C)n1-c1ccccc1,i,>57
Cc1ccc(-c2n[nH]c(=S)n2C)cc1,i,x
Oc1ccc2c(c1)oc1cc(O)ccc12,i,i
CCCCOC(=O)C1=C(C)Nc2ncnn2C1c1ccc(OC)c(OC)c1 (configuration not stated),i,>57

Not a retest: an excerpt of the list.
compound,YjeE inh,PK Bst
C[C@@H](C(=O)Nc1ccc2ccccc2c1)[C@H]1C[C@]1(C)[C@H](NS(=O)(=O)c1ccccc1)c1ccccc1,i,x
Cc1[nH]c(=O)[nH]c(=O)c1S(=O)(=O)N1CCCC(C(=O)NCCc2ccccc2)C1 (configuration not stated),i,>57

Other records:
compound,YjeE inh,PK Bst
O=C(CSc1ncnc2nc[nH]c12)N1CCOCC1,i,x
CC(=O)N(Cc1cc2cc(C)c(C)cc2n2nnnc12)CC1COCCO1 (configuration not stated),i,>57
COc1ccccc1NC(=O)CSc1nnc(C)o1,i,>57
Clc1ccc(SCCCCn2cncn2)cc1,i,>57
CN(C)c1ccc(NC(=O)CSCc2nc3c(nnn3Cc3ccc(F)cc3)c(=O)[nH]2)cc1,i,>57
CCOC(=O)C1=C(N)n2c(s/c(=C\c3cccnc3)c2=O)=C(C#N)C1c1cccnc1 (configuration not stated),i,>57
Cc1cc(C)c(C(=O)OCCNC(=O)c2cccnc2)cc1C,i,>57
CCC=O,i,x
CCOC(=O)C1=C(N)n2c(s/c(=C\c3ccco3)c2=O)=C(C(=O)OC(C)C)C1c1ccco1 (configuration not stated),x,i
CCN1CCN(CC(=O)NC2CCCCC2)C(=O)C1=O,i,x

Record cards (already shown).
Profile of Cc1cc(C)c(C(=O)OCCNC(=O)c2cccnc2)cc1C = YjeE inh = i; PK Bst = >57
Profile of Clc1ccc(SCCCCn2cncn2)cc1 = YjeE inh = i; PK Bst = >57

(list continues)
compound,YjeE inh,PK Bst
CCOc1ccc(C(=O)NCc2ccco2)cc1,i,x
COc1cccc(CN2CCN(C(=O)c3cccc4ccccc34)CC2)c1OC,i,u
Cc1cc(NC(=O)C2CCCN(S(=O)(=O)c3c(C)noc3C)C2)n[nH]1 (configuration not stated),i,x
Clc1ccc2c(c1)[C@H]1OCC[C@H]1[C@@H](c1ccco1)N2,i,x
O=C(Nc1cccc(C(F)(F)F)c1)C1C2CC3OC(=O)C1C3C2 (configuration not stated),i,>57
Cc1ccc(Nc2nc(N)nc(CN3CCN(C)CC3)n2)cc1C,i,>57
C=CCN1CCc2c(cc(O)c(O)c2Cl)[C@H](c2ccccc2)C1,i,x
CCOC(=O)c1ccc(N2C(=O)c3n[nH]c(C)c3C2c2ccc(OC)c(OC)c2)cc1 (configuration not stated),i,>57
COc1ccccc1N1CCN(C(=O)c2cc(C3CC3)on2)CC1,i,x
O=C(C1CCCO1)N1CCN(c2c3c(nc4cc(-c5ccc(F)cc5)nn24)CCC3)CC1 (configuration not stated),i,x

Other structures follow.
compound,YjeE inh,PK Bst
COc1cc(C2N(c3ccc(Cl)cc3)C(=O)C3CCCN32)cc(OC)c1OC (configuration not stated),i,x
Cc1ccccc1-c1nc(CN2CCC(C(=O)NCCCN3CCOCC3)CC2)c(C)o1,i,>57
CCC12CN3CC(CC)(CN(C1)C3c1ccc(OC(C)C)cc1)C2=O (configuration not stated),i,>57
O=C1CC(C(=O)O)c2ccccc2N1 (configuration not stated),x,>26
Cc1ccc(C2CC(c3ccc(C)cc3)n3nc(N)nc3N2)cc1 (configuration not stated),i,x
NC(=O)C1CC(=O)N(c2ccc(OCC(=O)Nc3cccc(C(F)(F)F)c3)cc2)C1 (configuration not stated),i,>57
COc1ccc(NC(=O)CCc2nc(-c3ccc(C)cc3)no2)c(OC)c1,i,>57
Cc1cc(C(=O)OCC(=O)N2CC(=O)Nc3ccccc32)no1,i,>57
COc1cccc(C2=NC(C)(C)NC(c3ccccc3O)C2)c1 (configuration not stated),i,x
Cc1cc(=O)oc2cc(OCC(=O)N3c4ccccc4CC3C)ccc12 (configuration not stated),i,>11
COc1ccc(C2(O)CC3CCC(C2)N3c2cc(C)nc(-c3ccccc3)n2)cc1 (configuration not stated),i,>57
